Source: PubChem BioAssay
Six1-Eya2 blk: inhibitors of human Six1/Eya2 interaction | AlphaScreen GST-Six1/His-Eya2 binding, biochemical; hits give low values; control for the full effect not named in the record | activity change, % (no concentration beside the values) | 360,000 compounds, 0.56% hits | AID 651725; in the data active = activity change below about -65%; inconclusive = about -30% to -65%; inactive = above about -30%; also: % is scaled to controls: 0 for no effect and ±100 for the full control effect
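Six1/Eya2 binding was read as AlphaScreen signal after compounds were pinned into GST-Six1 plus His-tagged Eya2 (5X stock 250/500 nM) in pH 8.0 Tris/NaCl/TCEP buffer, beads added, then incubated 1 h, 37 C, dark.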
CtBP-E1A blk: inhibitors of CtBP/E1A interaction; activity change, % (test concentration not listed); AlphaScreen GST-E1A/His-CtBP binding, 1536-well; hits give low values; control for the full effect not named in the record; AID 651724; 340,000 compounds, 0.49% hits; in the data active means activity change below about -65%; inconclusive means about -30% to -65%; inactive means above about -30%; also: % is scaled to controls: 0 for no effect and ±100 for the full control effect
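Homogeneous bead-based format: GST-tagged E1A captured on glutathione donor beads, His-tagged CtBP on nickel acceptor beads; compounds precede bead addition by 2 h at 37 °C.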
TRPV1 PAM: enhances activation of the human vanilloid receptor TRPV1; Q8NER1; 320,000 compounds, 0.02% hits; TRPV1-expressing cells, Fluo-8 calcium influx, capsaicin EC20 potentiation; host cell line not named in the record; control for the full effect not named in the record; potentiation, % at 8.33 µM; active means potentiation above 80%; inconclusive means 30% to 80%; inactive means below 30%; also: 0% is about no effect
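TRPV1-expressing cells were cultured overnight at 35.5C and loaded with Fluo-8 calcium dye for 40 to 90 min at room temperature. After a 10 s baseline, compound was added and calcium influx was read kinetically for 3 min (ex 480/em 520 nm).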
TRPML1 blocker: inhibitors of human TRPML1 channel. Q9GZU1. TRPML1-inducible cells, Ca2+ dye fluorescence, FDSS; hits give low values; inhibition of EC80 agonist-evoked calcium signal. activity change, negative = inhibition, % (no concentration beside the values). 390,000 compounds, 0.02% hits; in the data active means activity change below about -50%; inconclusive means about -30% to -50%; inactive means above about -30%;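 also: stimulus is agonist 54-4 at its EC80 concentration; % is scaled to controls: 0 for no effect and ±100 for the full control effect; compound concentration not given in the record; the text of the record puts the active cut at -80%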
Target sequence (Q9GZU1 whole entry, looked up): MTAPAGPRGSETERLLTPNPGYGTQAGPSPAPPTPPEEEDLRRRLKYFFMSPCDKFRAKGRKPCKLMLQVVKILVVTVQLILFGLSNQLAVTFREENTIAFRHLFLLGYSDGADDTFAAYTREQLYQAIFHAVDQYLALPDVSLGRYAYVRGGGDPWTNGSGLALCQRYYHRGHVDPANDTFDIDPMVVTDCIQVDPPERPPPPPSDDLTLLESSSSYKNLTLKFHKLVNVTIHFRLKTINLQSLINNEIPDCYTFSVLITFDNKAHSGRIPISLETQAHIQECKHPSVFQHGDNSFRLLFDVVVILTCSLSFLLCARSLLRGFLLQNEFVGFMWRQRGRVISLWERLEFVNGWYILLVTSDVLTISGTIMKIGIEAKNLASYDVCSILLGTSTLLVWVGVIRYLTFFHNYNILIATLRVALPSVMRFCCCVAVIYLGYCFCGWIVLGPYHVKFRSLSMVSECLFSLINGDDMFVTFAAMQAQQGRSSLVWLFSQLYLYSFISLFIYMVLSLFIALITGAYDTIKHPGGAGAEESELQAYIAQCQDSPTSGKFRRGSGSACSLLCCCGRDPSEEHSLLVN
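TRPML1-DL cells, Tet-induced overnight (~16 h, 37 °C) at 1,500 cells/well, were loaded with Ca8 no-wash dye plus quencher for 45-90 min at room temperature. Compounds were pinned during FDSS kinetic reading; agonist 54-4 at EC80 (4 uM final) then added.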
D2 PAM: positive allosteric modulators of human D2 dopamine receptor | P14416 | DiscoveRx D2 beta-arrestin cells, luminescence, 90 min; 100% = 57 uM dopamine signal | potentiation, % (test concentration not listed) | 360,000 compounds, 0.23% hits; active = potentiation of 50% or more; inconclusive = 30% to 50%; inactive = 30% or less;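 also: compound concentration not given in the record; tested on top of an EC20 dose of dopamine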
Target sequence (P14416 whole entry, looked up): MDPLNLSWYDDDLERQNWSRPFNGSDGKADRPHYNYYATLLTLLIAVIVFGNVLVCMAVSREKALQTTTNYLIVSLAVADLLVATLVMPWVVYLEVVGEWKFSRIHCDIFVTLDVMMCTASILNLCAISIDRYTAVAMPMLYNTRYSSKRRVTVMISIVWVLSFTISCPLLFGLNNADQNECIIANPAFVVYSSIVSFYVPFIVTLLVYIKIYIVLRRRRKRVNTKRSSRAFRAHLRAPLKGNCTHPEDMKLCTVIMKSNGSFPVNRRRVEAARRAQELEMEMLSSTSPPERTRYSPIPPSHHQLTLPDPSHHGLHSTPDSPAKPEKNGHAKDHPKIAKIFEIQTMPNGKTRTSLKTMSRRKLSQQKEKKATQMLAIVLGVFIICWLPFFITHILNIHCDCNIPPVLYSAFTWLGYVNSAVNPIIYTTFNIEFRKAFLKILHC
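D2 cells co-treated with compound plus 50 nM dopamine (EC20) for 90 min at 37 deg C to detect potentiation. Beta-arrestin recruitment was read as enzyme-fragment luminescence after 1 h at ambient temperature. Full response was set by 57 uM dopamine.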
TRPML1 agonist: agonists of human TRPML1 channel; Q9GZU1; TRPML1-expressing cells, Ca2+ dye fluorescence, FDSS; host cell line not named in the record; reference of the full effect not given here; activation, % (concentration not given with the values); 410,000 compounds, 0.12% hits; in the data active = activation above about 50%; inconclusive = about 30% to 50%; inactive = below about 30%; also: 0% is about no effect; the text of the record puts the active cut at 80%
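Kinetic FDSS Ca2+ read in Tet-induced TRPML1-DL cells (ABD Ca8 dye plus quencher, 45-90 min RT loading): baseline, then compound, then 110 s agonist window; EC80 agonist 54-4 at 4uM final added afterwards for a 110 s antagonist window.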
* = called active by the depositor; ? = inconclusive; nt = not tested or not shown; & = joins results of further samples.

SMILES	Six1-Eya2 blk	CtBP-E1A blk	TRPV1 PAM	TRPML1 blocker	D2 PAM	TRPML1 agonist
CC(=O)c1cc(N2CCC(C(=O)O)CC2)ccc1[N+](=O)[O-]	-0.2	4.3	-1.7	-8.1	-1.9	0.0
Cc1ccc(S(=O)(=O)Nc2ccccc2-c2ccccc2)cc1	9.3	5.7	-3.4	10.1	-2.5	2.3
c1csc(-c2nnc3ccccn23)c1	-1.9	-2.7	5.7	9.3	-5.9	-0.8
O=S(=O)(c1ccc2ccccc2c1)N1CCCOC1	6.9	2.7	22.1	14.9	19.1	0.6
O=C1CCCN1CC(O)CS(=O)(=O)c1ccccc1 (configuration not stated)	5.1	6.3	1.2	-5.4	-0.4	-0.1
COc1ccc(NS(=O)(=O)c2ccc3c(c2)N(C(C)=O)CC(C)S3)c(OC)c1 (configuration not stated)	-1.8	-4.1	-20.4	?	-4.4	0.5
Cc1ccsc1C(=O)OCC(=O)NCC1CCCO1 (configuration not stated)	6.8	3.7	-18.3	-20.4	1.4	-0.5
CC(C)c1ccc(NC(=S)NC2CC3C=CC2C3)cc1 (configuration not stated)	-12.1	-2.0	-16.4	16.5	-5.7	4.1
COCc1ccccc1C1=CC(=O)C[C@H](c2ccc(F)cc2)C1	2.7	9.7	-10.2	0.6	-7.2	1.2
Cc1ccc(C)c(N2CCN(S(=O)(=O)c3ccc4c(c3)CC(=O)N4C)CC2)c1	-4.4	-3.0	7.2	0.7&-8.9	9.1	-0.3&-1.0
O=C(CCNc1n[nH]c(=O)[nH]c1=O)N/N=C\c1cccc(OCc2ccccc2)c1	-7.3	-24.3	2.9	-7.7	1.8	0.2
Cc1cc(=O)[nH]c(SCC(=O)NC(C)C2CC3CCC2C3)c1C#N (configuration not stated)	-11.6	4.7	1.6	-0.9	12.7	-0.3
CSc1ccc(/C=C/C(=O)c2c(O)cc(C)oc2=O)cc1	-2.1	1.4	22.8	-7.7	-2.4	3.2
O=C(CSc1nnc(-c2ccco2)n1CC1CCCO1)N1CCCCC1 (configuration not stated)	5.0	-6.0	-2.2	-14.6	-3.6	0.2
CCOC(=O)c1c(-c2cccc([N+](=O)[O-])c2)csc1N	-11.9	-14.7	5.3	-0.3	2.2	7.4
COC(=O)c1sc(=S)n(-c2cccc(Cl)c2)c1N	-2.1	2.6	23.4	0.7	-13.0	0.3
CCCC(=O)Nc1c(-c2ccccc2)c(=O)c(C)nn1-c1ccc(Cl)cc1	14.6	-1.7	6.6	13.4	-8.2	2.1
CCc1nc2c(OCc3cccc(OC)c3)cccn2c1N(C)C(=O)C(C)C	0.8	-0.6	nt	nt	-3.9	-0.8
O=C(c1nc2ccccn2c1CNCCCn1ncc2ccccc21)N1CCOCC1	0.1	-17.6	0.5	-10.3	-6.8	2.1
CCn1c(COc2ccc(=O)n(-c3ccccc3)n2)nnc1SC	8.2	3.1	?	-3.7	-0.8	-0.3
CCCCCc1cc(=O)oc2c(C(CCN3CCCCC3)c3ccc(OC)cc3)c(OC)cc(OC)c12 (configuration not stated)	-16.3	-13.4	?	61.8&14.3	-21.3	0.4&-0.4
Cc1cc(NC(=O)COC(=O)C2CCN(C(=O)c3ccc(Cl)cc3)CC2)no1	1.4	0.0	3.5	9.5	-12.9	0.3
O=C(Nc1ccon1)Nc1cccc(Cl)c1Cl	6.7	3.5	-16.2	2.1	-19.4	0.0
Nc1nnnn1/N=C/c1cccs1	2.8	6.0	-1.9	-7.7	-3.6	-0.3
COc1ccc(N2CCN(CC(=O)c3c[nH]c4ccccc34)CC2)cc1	-13.5	7.5	5.6	5.3	-12.4	-0.8

Next section; it opens with the 5 that closed the last part.
SMILES	Six1-Eya2 blk	CtBP-E1A blk	TRPV1 PAM	TRPML1 blocker	D2 PAM	TRPML1 agonist
CCCCCc1cc(=O)oc2c(C(CCN3CCCCC3)c3ccc(OC)cc3)c(OC)cc(OC)c12 (configuration not stated)	-16.3	-13.4	?	61.8&14.3	-21.3	0.4&-0.4
Cc1cc(NC(=O)COC(=O)C2CCN(C(=O)c3ccc(Cl)cc3)CC2)no1	1.4	0.0	3.5	9.5	-12.9	0.3
O=C(Nc1ccon1)Nc1cccc(Cl)c1Cl	6.7	3.5	-16.2	2.1	-19.4	0.0
Nc1nnnn1/N=C/c1cccs1	2.8	6.0	-1.9	-7.7	-3.6	-0.3
COc1ccc(N2CCN(CC(=O)c3c[nH]c4ccccc34)CC2)cc1	-13.5	7.5	5.6	5.3	-12.4	-0.8
N#CC(c1ccc(Cl)cc1)(c1ncc(C(F)(F)F)cc1Cl)N1CCOCC1 (configuration not stated)	0.1	-16.3	nt	29.3	4.3	1.2
COc1ccc(N(CC(=O)N2CCN(C)CC2)S(=O)(=O)c2cc(C)ccc2OC)cc1Cl	-16.1	-11.0	3.9	-3.7	11.0	-0.6
C/C(=N\NC(=O)c1cc(-c2cccc([N+](=O)[O-])c2)n[nH]1)c1ccccc1O	-1.6	-5.4	13.3	3.9	-21.0	2.7
COc1ccccc1NC(=O)C1CCCCN1S(=O)(=O)c1ccc(F)cc1 (configuration not stated)	4.9	-2.4	-14.1	-18.8	-6.3	0.2
CC(=O)c1cc(-c2ccccc2)n(CCC(=O)NC2CCC(C)CC2)c1C (configuration not stated)	1.4	-7.0	-32.6	-9.8	1.9	1.9
COc1ccc(CC(=O)Nc2ccccc2C(=O)N2CCOCC2)cc1OC	-2.4	3.6	1.2	-9.2	-13.8	0.0
COc1ccc(Cl)cc1NC(=O)c1cccc(NC(=O)CCC(=O)O)c1	0.2	8.2	-4.2	15.7	-11.8	-0.4
CC(OC(=O)CNS(=O)(=O)c1ccc2ccccc2c1)C(=O)N(C)c1ccccc1 (configuration not stated)	-9.9	-4.0	-6.1	-8.9	-17.8	1.0
O=C(c1ccc(Oc2ccc(Cl)cc2)c([N+](=O)[O-])c1)N1CCCC1	-8.7	-15.2	-29.0	-22.9	8.1	2.3
c1cc(-c2cc3nc(NCC4CC4)ccn3n2)ccc1OCCN1CCOCC1	-10.6	-4.4	nt	18.4	0.3	1.5
O=C1C2CCCCN2C(=O)N1CCCCN1CCN(c2ccccc2Oc2ccccc2)CC1 (configuration not stated)	-8.5	-12.8	2.4	-7.2	-5.4	0.7
c1ccc(C(CN2CCCCC2)Oc2ccccn2)cc1 (configuration not stated)	0.9	-4.0	nt	-6.1	-5.9	0.4
O=C(NC1=NCCS1)C1CCN(S(=O)(=O)c2ccc(Cl)cc2)CC1	21.3	nt	-0.1	1.2	1.4	-0.7
Cc1cc(-c2[nH]nc3c2C(c2cccc(O)c2)C(C#N)=C(N)O3)c(C)s1 (configuration not stated)	-7.8	-4.6	3.6	38.8	3.1	3.2
Cc1ccc(C(=O)Nc2ccc(S(=O)(=O)NC3=NCCCCC3)cc2)cc1S(=O)(=O)N1CCOCC1	2.5	-2.8	-0.3	15.5	-2.7	0.1
COc1ccc(S(=O)(=O)NN(C)c2ncc(C(F)(F)F)cc2Cl)cc1	1.5	nt	-5.8	-6.5	-9.1	1.6
CC(C)c1ccccc1NC(=O)CSc1n[nH]c(=O)n1C1CC1	-2.3	14.3	-7.9	8.7	-4.9	-0.5
CCCCC(=O)Nc1ccc2c(c1)nc1n2CCSC1	4.1	-1.4	-4.9	-11.4	-4.1	-0.4
C/C(=N\NC(=O)CN1CCCCC1)c1cccc([N+](=O)[O-])c1	-10.8	-6.6	nt	-13.3	-5.5	1.5
O=C(OCC(=O)N1CCC(Cc2ccccc2)CC1)c1cccnc1Cl	-9.1	-14.9	nt	-8.1	2.6	1.4
CC(C)NC(=O)NC(=O)COC(=O)c1ccc(S(=O)(=O)NCc2ccco2)cc1	1.3	8.4	12.3	-2.2	-0.3	-0.3
COc1ccc(N2CCN(C(=O)COC(=O)Cc3cccc(OC)c3)CC2)cc1	-6.2	1.0	?	-1.6	2.7	-0.5
COc1cccc(C2=CC(=O)C[C@H](c3ccc(F)cc3)C2)c1	-4.7	29.1	-8.0	63.6	-8.8	5.1
CC(=O)N(c1ccc(C(C)C)cc1)C1C=CS(=O)(=O)C1 (configuration not stated)	3.5	3.8	-0.4	10.4	0.4	-0.4
CCC(=O)Nc1ccc(S(=O)(=O)Nc2ncccn2)cc1	4.4	7.8	0.0	0.0	-12.4	-0.2
SMILES	Six1-Eya2 blk	CtBP-E1A blk	TRPV1 PAM	TRPML1 blocker	D2 PAM	TRPML1 agonist
O=C1c2cnccc2CN1Cc1ccccc1	1.7	2.8	-0.3	17.6	6.1	-0.1
O=C(CSc1nnc(-c2ccccc2)n1-c1ccccc1)N1c2ccccc2Sc2ccccc21	3.7	6.4	20.3	-2.0	-4.6	0.7
CCN(CC)C(=O)c1nc[nH]c1C(=O)N1CCC(C)CC1	18.6	0.0	nt	0.0	5.4	-0.9
O=c1c2cc(NC(=S)NCc3ccccn3)ccc2nc2n1CCCCC2	-6.0	-15.8	-7.8	28.0	-2.4	0.0
CCC(CC)C(=O)NCc1ccc2c(c1)cc(C)n2C	17.6	41.9	-12.2	-14.3	19.1	-0.3
CCOC(=O)c1cccc(Nc2ncnc3ccc(C)cc23)c1	-4.4	1.3	-10.6	27.3	4.7	0.5
COc1ccc(CC(=O)NC(C)(C)C)cc1S(=O)(=O)N1CCOCC1	-0.9	11.3	-2.0	4.4	-7.8	-0.8
COc1ccc(S(=O)(=O)N2CCCN(CC(=O)Nc3cc(NC(C)=O)ccc3OC)CC2)cc1	5.5	-0.7	-14.2	-6.4	-2.6	-0.3
O=C(NC1CCCCC1)c1ccc(S(=O)(=O)NCc2ccco2)cc1	-2.9	-5.4	-11.0	1.2	-13.3	-0.5
O=C(Oc1cccnc1)c1ccccc1[N+](=O)[O-]	-4.9	nt	2.6	-0.4	-5.2	0.6
CCOC(=O)Cc1nnc(NC(=O)CSc2nncn2C)s1	-1.7	11.1	5.8	-9.4	2.9	-0.5
Cc1cccnc1NC(=O)CCNC(=O)c1ccccc1Cl	-2.0	-0.3	3.4	-10.1	5.3	0.1
CC(C)Cc1nnc(NC(=O)c2cccc(S(=O)(=O)N3CCOCC3)c2)s1	0.0	-0.4	-17.0	4.6	-1.0	0.2
CCN1CCN(CCC(=O)Nc2ccc(F)c(F)c2)CC1	9.0	11.1	3.4	-7.0	-14.1	-0.2
COc1cc(CN2CCNC(=O)C2CC(=O)N2CCCO2)cc(OC)c1 (configuration not stated)	1.1	-9.5	1.6	-11.4	3.8	0.5
COc1cc(NC(=O)C2CC3CCC2C3)c(OC)cc1Cl (configuration not stated)	22.0	0.0	nt	-2.3	-3.3	2.4
COc1ccccc1CNC(=O)Cn1c(=O)oc2cc(Cl)ccc21	-7.4	-11.3	-8.9	-12.4	-21.3	-0.9
Cc1cc(=O)[nH]c(-c2ccccc2O)n1	-0.2	-6.0	-2.9	-3.9	-9.9	-0.1
COc1cccc(C2Oc3ccccc3C3CC(c4cccs4)=NN32)c1 (configuration not stated)	-0.3	1.6	0.4	10.2	-7.0	1.4
Cc1ccccc1-n1c(=O)cc(N2CCc3ccccc3C2)[nH]c1=O	19.3	36.8	13.0	-16.0	-10.8	3.9
CC(C)(C)OC(=O)n1cc(CCO)c2ccccc21	2.9	5.2	-14.9	-7.8	-3.8	0.7
